CHT block: inhibitors of human choline transporter CHT; Q9GZV3; 0.86% of 310,000 active; CHT-expressing cells, membrane potential dye, choline response; hits give low values; B-score at 10 µM;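 active = B-score over 3 SD under the library average, and starting fluorescence ratio not unusually high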;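 note: choline stimulus applied at its EC90 after an EC20 pre-addition; B-score computed on integrated fluorescence ratio after choline addition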
Target sequence (Q9GZV3 whole entry, looked up): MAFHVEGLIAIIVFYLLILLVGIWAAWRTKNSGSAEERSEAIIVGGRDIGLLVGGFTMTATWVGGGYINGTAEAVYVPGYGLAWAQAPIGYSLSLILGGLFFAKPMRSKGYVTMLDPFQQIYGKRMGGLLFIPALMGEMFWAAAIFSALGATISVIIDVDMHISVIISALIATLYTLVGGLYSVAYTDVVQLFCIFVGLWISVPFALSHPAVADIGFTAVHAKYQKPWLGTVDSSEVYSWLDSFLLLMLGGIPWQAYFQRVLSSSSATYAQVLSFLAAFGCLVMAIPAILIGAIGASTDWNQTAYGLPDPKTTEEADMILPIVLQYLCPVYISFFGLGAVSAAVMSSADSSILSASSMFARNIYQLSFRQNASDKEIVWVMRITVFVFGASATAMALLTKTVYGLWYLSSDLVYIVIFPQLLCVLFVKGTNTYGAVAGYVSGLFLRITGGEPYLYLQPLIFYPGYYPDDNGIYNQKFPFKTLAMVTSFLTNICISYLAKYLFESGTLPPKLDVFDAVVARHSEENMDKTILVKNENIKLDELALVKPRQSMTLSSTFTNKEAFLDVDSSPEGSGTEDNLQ
CHT allo act: human CHT allosteric activation | Q9GZV3 | CHT-expressing cells, membrane potential dye, choline EC20; hits give high values; LV-AA mutant CHT in HEK293 cells | B-score at 10 µM | 0.49% of 310,000 active | AID 488977;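 active = initial fluorescence not abnormally high and integrated response B-score, plate-corrected, over 3 SD above library mean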
Calls only; i = inactive.

Below each compound – CHT block, CHT allo act
[1] Cc1cc(NC(=O)CN2CCN(c3ccccc3O)CC2)no1
    i, i
[2] CCOC(=O)c1ccc(N2CCN(c3cc(C)ccc3C)CC2)c(N)c1
    i, i
[3] Cc1ccc(C(=O)Oc2ccc(C(=S)N3CCOCC3)cc2)cc1
    i, i
[4] O=C(CNC(=O)c1ccccc1F)N/N=C/c1ccco1
    i, i
[5] COc1cc(NC(=O)NCC2CCN(Cc3ccccc3F)CC2)cc(OC)c1
    i, i
[6] CCC(Oc1ccccc1)C(=O)Nc1ccccc1OC (stereo not given)
    i, i
[7] Cc1cccc(OCc2nc(-c3nonc3N)no2)c1C
    i, i
[8] CC1CCN(CC(=O)NCCc2ccc(F)cc2)CC1
    i, i
[9] CC(=O)NC(=O)c1ccc(-c2ccc(Cl)cc2)o1
    i, i
[10] C=CCC1(CC=C)CCCN1C(=O)c1cc(COc2ccc(-n3cncn3)cc2)on1
    i, i
[11] CC1Cc2cc(C(=O)O)ccc2O1 (stereo not given)
    i, i
[12] COc1ccc(CN(CCC(c2ccco2)C(C)C)C(C)=O)cc1OC (stereo not given)
    i, i
[13] Cn1cc(/C=C/C(=O)N2CCCC(C(=O)c3ccc(C(F)(F)F)cc3)C2)cn1 (stereo not given)
    i, i
[14] O=C(OCc1nc2ccc(Cl)cc2n1CCO)c1ccccc1C(=O)c1ccccc1
    i, i
[15] COc1cccc(C2=NOC(C(=O)Nc3cc(C)on3)C2)c1OC (stereo not given)
    i, i
[16] O=C(CNc1ccccc1)Nc1ccc(F)cc1
    i, i
[17] CCOC(O)[C@H]1N[C@@H](c2ccc(Cl)cc2)[C@@H]([N+](=O)[O-])[C@@H]1c1ccccc1 (stereo not given in full)
    i, i
[18] CC(C)Cc1ccc(C(C)C(=O)Nc2nccs2)cc1 (stereo not given)
    i, i
[19] [O-]/[N+](=C\c1ccc(F)cc1)c1ccccc1
    i, i
[20] Cc1cc(C(F)(F)F)nn1CC(=O)N1CCCCC1C (stereo not given)
    i, i
[21] CCOc1ccccc1C1C(C(=O)Nc2ccc(OC)cc2)=C(C)Nc2nc(CCCO)nn21 (stereo not given)
    i, i
[22] COCCN(CCOC)Cc1cc(=O)oc2cc3c(cc12)CCC3
    i, i
[23] CSc1ccc(/C=N/NC(=O)CN2CCN(Cc3ccc(Cl)cc3)CC2)cc1
    i, i
[24] Cc1occc1-c1nnc(SCC(=O)NCCc2ccccc2)o1
    i, i
[25] O=C(O)c1cccc(NC(=O)C2CC(=O)N(Cc3ccccc3)C2)c1 (stereo not given)
    i, i
[26] CCCCCCn1ccc(=N)cc1
    i, i
[27] CCOc1ccc(NS(=O)(=O)c2ccc(-c3ccc(=O)[nH]n3)o2)cc1
    i, i
[28] O=S(=O)(Cc1ccc(Cl)cc1)NCc1cccnc1
    i, i
[29] COc1cccc(S(=O)(=O)Nc2ccc(C(=O)N3CCCCCC3)cc2)c1
    i, i
[30] CN1CCN(c2nc3c(c(=O)[nH]c(=O)n3C)n2Cc2ccccc2F)CC1
    i, i

Entries shown so far with a CF3 group, in the order listed:
Below each compound – CHT block, CHT allo act
[13] Cn1cc(/C=C/C(=O)N2CCCC(C(=O)c3ccc(C(F)(F)F)cc3)C2)cn1 (stereo not given)
    i, i
[20] Cc1cc(C(F)(F)F)nn1CC(=O)N1CCCCC1C (stereo not given)
    i, i

In another format: 4 of the compounds above.
[4] O=C(CNC(=O)c1ccccc1F)N/N=C/c1ccco1
  CHT block = i	CHT allo act = i

[5] COc1cc(NC(=O)NCC2CCN(Cc3ccccc3F)CC2)cc(OC)c1
  CHT block = i	CHT allo act = i

[6] CCC(Oc1ccccc1)C(=O)Nc1ccccc1OC (stereo not given)
  CHT block = i	CHT allo act = i

[7] Cc1cccc(OCc2nc(-c3nonc3N)no2)c1C
  CHT block = i	CHT allo act = i

(continued)
Below each compound – CHT block, CHT allo act
[31] C/C=C(\C)C(=O)Nc1cccc(C2=NOC3(C2)C[C@@H](C(N)=O)N(C(=O)c2ccccc2C(=O)c2ccccc2)C3)c1 (stereo not given in full)
    i, i
[32] O=C1CC[C@@H](CN(Cc2ccccn2)Cc2nc(-c3ccc(C(F)(F)F)cc3)no2)N1
    i, i
[33] COc1ccc(Oc2c(C)oc3c(CN(C)C)c(O)ccc3c2=O)cc1
    i, i
[34] C=CCC(c1ccccc1F)N(CCN1CCOCC1)C(=O)Nc1cccc(Cl)c1 (stereo not given)
    i, i
[35] Cc1cc(C)n(-c2ccc(C(=O)Nc3nc4ccccc4s3)cc2)n1
    i, i
[36] COc1ccc(NC(=O)CN(C)C(=O)c2ccc(COc3ccccc3)o2)cc1
    i, i
[37] Cn1c(SCC(=O)c2ccccc2)nnc1-c1cnccn1
    i, i
[38] O=C(O)C1CC(=O)N(c2ccc(OCc3ccc(Cl)cc3Cl)cc2)C1 (stereo not given)
    i, i
[39] COc1nc(C)nc2c1ccc1ccccc12
    i, i
[40] O=C(NCCc1ccc(Cl)cc1)C1CCC(=O)N1Cc1ccccc1Cl (stereo not given)
    i, i
[41] C=CCNC(=S)N1CCN(CCNC2=CC(=O)CC(C)(C)C2)CC1
    i, i
[42] O=C(COC(=O)c1ccccc1Nc1ccccc1)NCc1ccco1
    i, i
[43] O=C(Nc1cccc([N+](=O)[O-])c1)c1ccc2snnc2c1
    i, i
[44] COC(=O)C1=C(C)N(C)C(=O)NC1c1cccc2ccccc12 (stereo not given)
    i, i
[45] COCCNC(=O)COc1ncnc2scc(-c3ccc(F)cc3)c12
    i, i
[46] Cc1noc(/C=C/N(C)C)c1S(=O)(=O)N1CCCC(C(=O)Nc2ccc3c(c2)OCO3)C1 (stereo not given)
    i, i
[47] CN(C)Cc1ccccc1C1(O)c2ccccc2CSc2ccccc21 (stereo not given)
    i, i
[48] Cc1cccc(S(=O)(=O)Nc2nc3ccccc3nc2OC(C)C)c1
    i, i
[49] CCOC(=O)c1ccccc1NC(=O)CCNC(=O)Cn1cnc2ccccc2c1=O
    i, i
[50] O=C(CN1CCN(c2ccc([N+](=O)[O-])cc2Cl)CC1)N1CCOCC1
    i, i
[51] CN1CCN(c2nc3c(c(=O)n(C)c(=O)n3C)n2Cc2cccc3ccccc23)CC1
    i, i
[52] Cc1ccc(Nc2nc(-c3sc(NC(=O)c4ccccc4)nc3C)cs2)cc1
    i, i
[53] COc1ccc(N(C(=O)c2snc(C(N)=O)c2N)C(C(=O)NCC2CCCO2)c2ccc(C)o2)cc1OC (stereo not given)
    i, i
[54] CC(C)c1csc(CN2CCC(CO)(Cc3ccccc3)CC2)n1
    i, i
[55] O=C(NC1=NCCS1)C1CC(=O)N(c2ccc(Cl)cc2)C1 (stereo not given)
    i, i
[56] O=C(COC(=O)/C=C/c1cccc([N+](=O)[O-])c1)NCc1ccc2c(c1)OCO2
    i, i
[57] Cc1nccc2oc(=O)c(NC(=O)c3ccc(Cl)cc3)cc12
    i, i
[58] CSCC[C@H](NC(=O)N1CCn2c1nc1ccccc12)C(=O)NCC1CCCO1 (stereo not given in full)
    i, i
[59] Cc1cccc(C)c1NC(=O)CN1C(=O)S/C(=C\c2cccn2C)C1=O
    i, i
[60] COC(=O)C1CCN(C(=O)c2ccccc2Oc2ccccc2)CC1
    i, i
[61] O=C(NCCc1ccccc1)c1cc2ncc(Br)cn2n1
    i, i
[62] CCC(=O)/C=C1\Sc2ccc(OC)cc2N1CCO
    i, i
[63] Cc1ccc(C2NC(=O)c3sc(=S)n(-c4ccccc4)c3N2)cc1 (stereo not given)
    i, i
[64] COCCN(C(=O)CSc1nncn1-c1ccccc1)c1c(N)n(Cc2ccccc2)c(=O)[nH]c1=O
    i, i
[65] Cc1ccc(-c2cccc(C(=O)NCCc3ccccc3)n2)c2ccccc12
    i, i
[66] Cc1ccc(-c2nn(CCC(=O)NCC3CCCO3)c(=O)c3ccccc23)cc1 (stereo not given)
    i, i
[67] CCCn1c2ccccc2c2cn[nH]c(=O)c21
    i, i
[68] O=C(Cn1c(=O)n(-c2ccccc2)c(=O)c2sccc21)NCc1ccccc1
    i, i
[69] CC(CNC(=O)CCc1nnc(CCC2CCCCC2)o1)c1ccccc1 (stereo not given)
    i, i
[70] COCCCNC(=O)CCc1nnc(Cc2ccc(-c3ccccc3)cc2)o1
    i, i
[71] O=C(/C=C/c1ccc(F)cc1)NC(=S)Nc1ccccc1C(=O)NC1CCCCC1
    i, i
[72] O=S(=O)(c1cccc(-c2nnco2)c1)N1CCOCC1
    i, i
[73] CCOC(=O)C1CCCN(C(=O)CNC(=O)Cn2ccc3ccccc3c2=O)C1 (stereo not given)
    i, i
[74] COc1ccc(-c2oc3ccccc3c2C(=O)OCc2ccccc2)cc1
    i, i
[75] COc1ccc2c(c1)c(CC(=O)OCC(=O)N(C)C)c(C)n2C(=O)c1ccc(Cl)cc1
    i, i
[76] CCNC(=O)COc1ccc(CC)cc1
    i, i
[77] O=C(c1ccccc1)c1ccc(OCCn2cnc3ccccc3c2=O)cc1
    i, i
[78] Cc1ccccc1N(C(=O)CCCC(=O)Nc1ccccn1)C(C(=O)NC1CCCC1)c1ccc(O)cc1 (stereo not given)
    i, i
[79] O=C(Nc1ccc(N2CCOCC2)c(Cl)c1)c1ccccc1F
    i, i
[80] C/C(CC(=O)NC1CCCC1)=N\NC(=O)Cc1csc(N)n1
    i, i
[81] O=C1C2C3C=CC(C3)C2C(=O)N1Nc1ccccc1 (stereo not given)
    i, i
[82] COc1ccccc1N1CCN(C(=O)CSc2nnc(NC(=O)c3ccco3)s2)CC1
    i, i
[83] O=C(CNS(=O)(=O)c1ccc(Br)cc1)N1CCOCC1
    i, i
[84] CCOC(=O)N1CCN(C2OC(=O)c3ccccc32)CC1 (stereo not given)
    i, i
[85] CCn1c(CSCc2c(Cl)cccc2Cl)n[nH]c1=S
    i, i
[86] O=C(CCN1C(=O)c2ccccc2S1(=O)=O)NCc1ccccc1
    i, i
[87] O=C(O)CCCn1c(=O)[nH]c2ccccc2c1=O
    i, i
[88] Cc1nn(CC(=O)NCCc2cccs2)c(=O)c2cc3ccccc3n12
    i, i
[89] NNC(=O)c1ccc(COc2cccc3ccccc23)cc1
    i, i
[90] CCCNC(=O)COc1coc(CN2CCN(Cc3ccccc3)CC2)cc1=O
    i, i

The results go on.
Below each compound – CHT block, CHT allo act
[91] CCCOn1c(-n2nc(C)cc2C)nc2ccccc2c1=O
    i, i
[92] Cc1ccc(S(=O)(=O)N(Cc2ccccc2)C(C)C)cc1
    i, i
[93] CC(C)(C)NC(=O)NC(=O)CN1CCCCCCC1
    i, i
[94] Cc1c(OCC(=O)NCC2CCC(C(=O)O)CC2)ccc2c(-c3ccccc3)cc(=O)oc12 (stereo not given)
    i, i
[95] O=C(Cn1cccc1)NC1CCCCCC1
    i, i
[96] CCN1C(=O)[C@@H]2[C@@H](c3ccc(-c4ccc5c(c4)OCO5)c(OC)c3)N3CCCC[C@@]3(C(=O)OC)[C@@H]2C1=O
    i, i
[97] CC(C(=O)NCC1CCCCC1)N(C)Cc1ccc(Br)cc1 (stereo not given)
    i, i
[98] CCOc1ccc(CN2CCN(Cc3ccc(C)o3)CC2CCO)cc1 (stereo not given)
    i, i
[99] COc1ccc(/C=C/C(=O)N/C(=C\c2ccco2)C(=O)NCCc2nc3ccccc3[nH]2)cc1
    i, i
[100] C(=N\n1cnnc1)/c1cccc2ccccc12
    i, i
[101] CCN(CC)S(=O)(=O)c1ccc(Cl)c(C(=O)NCc2ccccc2Cl)c1
    i, i
[102] COc1ccc(NC(=O)c2cn(CCC#N)nc2-c2cc3ccccc3o2)cc1
    i, i
[103] COc1ccc(C(=O)N[C@H](C(=O)Nc2sccc2C(N)=O)C(C)C)cc1
    i, i
[104] CC(=O)n1cc([C@H]2C=C(C(=O)Nc3ccccc3)O[C@@H](OCc3ccc(CO)cc3)C2)c2ccccc21
    i, i
[105] O=C(CCC1CCCCC1)Nc1nccs1
    i, i
[106] CC1CN(CCCCOc2cccc(Oc3ccccc3)c2)CC(C)O1 (stereo not given)
    i, i
[107] Cc1nnc(SCC(=O)N2CCCCC2)s1
    i, i
[108] O=C(CCOc1ccccc1)Nc1ccnn1C1CCN(Cc2ccccc2)CC1
    i, i
[109] Cn1c(C(O)c2ccccc2F)nc(Cl)c1Cl (stereo not given)
    i, i
[110] COCCCNC(=O)CCC(=O)NNc1nc2ccccc2c2nc(-c3ccccc3)nn12
    i, i
[111] COCCn1c(SCC(=O)N2CCOCC2)nnc1-c1ccncc1
    i, i
[112] O=C(NCCN1CCOCC1)c1ccc(Cl)c(S(=O)(=O)N2CCCC2)c1
    i, i
[113] CC(=O)Nc1cccc(-n2nnc(SCC(N)=O)n2)c1
    i, i
[114] COC(=O)c1c(NC(=O)c2cnccn2)sc2c1CCC2
    i, i
[115] N#CC1(NC(=O)COC(=O)c2cc([N+](=O)[O-])ccc2N2CCOCC2)CCCCC1
    i, i
[116] COc1ccc(CCN2CC(C(=O)N(C)Cc3ccccc3OC)CCC2=O)cc1 (stereo not given)
    i, i
[117] O=C(Oc1ccc(N(C(=O)c2ccncc2)S(=O)(=O)c2ccc(Cl)cc2)cc1)c1ccncc1
    i, i
[118] Cc1ccc(S(=O)(=O)c2cccc(S(=O)(=O)N3CCCC3)c2)cc1S(=O)(=O)N1CCCC1
    i, i
[119] CN(CCNC(=O)Cn1c(=O)sc2ccccc21)Cc1ccccc1
    i, i
[120] Cc1ccc(S(=O)(=O)CCC(=O)Nc2ccc3c(c2)OCO3)cc1
    i, i

The closing 2 compounds of the section above open the next one:
Below each compound – CHT block, CHT allo act
[119] CN(CCNC(=O)Cn1c(=O)sc2ccccc21)Cc1ccccc1
    i, i
[120] Cc1ccc(S(=O)(=O)CCC(=O)Nc2ccc3c(c2)OCO3)cc1
    i, i
[121] Cc1ccc(C)c(N2CCN(C(=O)c3csc(C)c3C)CC2)c1
    i, i
[122] CCOc1cc2[nH]c(=O)n(CCCN3CCCC3=O)c(=O)c2cc1OCC
    i, i
[123] COc1cccc(/C=N/NC(=O)CSc2nnc(C)n2-c2ccccc2)c1OC
    i, i
[124] CC1CC(C)CN(CCOc2cccc3ccccc23)C1 (stereo not given)
    i, i
[125] Cc1nn2c3cc(N4CCOCC4)ccc3nc2c2ccccc12
    i, i
[126] CCn1cc(CN2CCCC(C(=O)Nc3cccc(-c4cc5ccccc5[nH]4)c3)C2)c(C)n1 (stereo not given)
    i, i

Screening data from PubChem BioAssay.

Only part of the results is shown; most or all hits stand in other tables.
